Calb FLC: C. albicans growth inhibition with fluconazole, primary screen, CaCi-2 strain, Alamar Blue fluorescence. C. albicans CaCi-2 (fluconazole-resistant clinical isolate) + fluconazole, 48 h. growth inhibition, % (test concentration not listed). 300,000 tested, 0.57% active;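 active = most replicates above 75%; inconclusive = exactly half above 75%; inactive = most below 75%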;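 note: all wells also contain fluconazole at 8 µg/ml as a sub-toxic cotreatment; 0% = median of DMSO wells and 100% = median of geldanamycin control wells; wells of about 8 µL received 7.5 nL stock; the first replicate is given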
Ecoli rRNA inh: reduced GFP signal of wild-type E. coli, primary screen, bacterial rRNA inhibitor project, GFP/RFP fluorescence, OD600, single point; GFP signal change (wild-type ribosome), % (test concentration not listed); AID 720706, 2013; 350,000 tested, 1.6% active; E. coli WT GFP vs humanized-ribosome RFP mutants, 24 h; stronger effect = lower value; DMSO median 0, no signal -100;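 active = significant combined selectivity score with lowered wild-type GFP, culture density cut under 30%, mutant RFP and density less affected; inactive = any of these conditions unmet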; note: one replicate is shown; some compounds called inactive have numbers as strong as hits
T cruzi inh: inhibitors of intracellular T. cruzi growth, primary screen, luminescence, NIH3T3 host cells; T. cruzi beta-gal in NIH3T3, 90 h; inhibition, % (no concentration beside the values); 300,000 tested, 1.4% active;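 active = mean inhibition across valid replicates above about 55%, limit read from the data; inconclusive = mean below that limit but half or more replicates reach it; inactive = mean below it, under half of replicates reach it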;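 note: signal also drops with host cell toxicity which is not excluded here; 0% = plate median of DMSO wells and 100% = zero luminescence signal; higher percent means less beta-gal luminescence so fewer parasites; stock transfer was 50 nL into about 50 µL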
RanGTP-Impb inh: inhibitors of RanGTP-importin-beta interaction, primary screen, biochemical, FRET, CFP-Ran, YFP-importin-beta, homogeneous; inhibition, % (no concentration beside the values); AID 2216, 2009; 300,000 tested, 1.1% active; cell-free CFP-Ran/YFP-importin-beta FRET ratio;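 active = most replicates above 15%; inconclusive = exactly half above 15%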;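 note: 0% = DMSO wells and 100% = Ran loaded with GDP instead of GTP; wells of about 40 µL received 100 nL stock; the first replicate is given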
Vif TR-FRET: inhibitors of Vif binding to APOBEC3G peptide, primary screen, biochemical, TR-FRET, GST-Vif 1-94, biotin-A3G peptide, dose response retest (AID 1117319); 260,000 tested, 0.57% active; one-dose inhibition, %; IC50 in µM for titrated hits; TR-FRET GST-Vif / biotin-A3G peptide binding; higher % means a stronger effect; test concentration not given here; strong numbers were not always called active;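 active = above the screen mean plus three standard deviations and confirmed in dose response; inconclusive = results disagree or hit not tested in dose response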;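 note: Vif residues 1-94 fused to GST binding biotinylated APOBEC3G peptide 110-148; 0% = full assay without inhibitor and 100% = GST in place of GST-Vif; retest series ran down from 100 µM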
Bfl-1 A1 inh: caspase 3/7 activation in MEF A1-2A-BIM cells, primary screen, A1 inhibitor project, cell-based, luminescence, HTS; Caspase-Glo 3/7 luminescence, 3 h; percent of clofoctol response, vehicle zero; caspase activation, % (concentration not given with the values); 330,000 tested, 0.066% active; AID 2462, 2010;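 active = over half of replicate activation scores above 10%, or exactly half above 10 with the replicate mean above 10; inconclusive = replicate mean below 10 yet half the replicates above 10; inactive = over half of replicates below 10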;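 note: wells of about 30 µL received 50 nL stock; many hits fall short of the cut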
Beta apoptosis: inhibitors of cytokine-induced beta cell apoptosis, primary screen, luminescence | INS-1E cytokine-induced death, ATP luminescence, 48 h; percent of positive-control rescue, neutral wells zero | protection from apoptosis, % (test concentration not listed) | 300,000 tested, 0.8% active;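 active = all replicates at 75% or more, or half of them and the mean; inconclusive = half reach 75% but not the mean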;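 note: 0% = cytokine-treated negative control wells and 100% = positive control rescue; higher means more ATP so stronger rescue from cytokine killing; wells of about 40 µL received 100 nL stock; the first replicate is given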
MLL AF4-AF9 inh: inhibitors of AF4 peptide binding to AF9, primary screen, biochemical, AlphaScreen, biotin-AF4 peptide, FLAG-AF9, single point; Protein AF-9 (Homo sapiens), P42568; inhibition, % at 10 µM; 350,000 tested, 0.47% active; AID 651704, 2012;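 active = every replicate reaching a set inhibition limit, whatever the replicate mean, cut at about 25% in these data; inconclusive = mean inhibition reaches that limit but some replicates miss it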;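 note: 0% = plate neutral control median and 100% = total signal loss; the record names both 10 and 1 µM as test concentration; the first replicate is given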
Target sequence (P42568 whole entry, looked up): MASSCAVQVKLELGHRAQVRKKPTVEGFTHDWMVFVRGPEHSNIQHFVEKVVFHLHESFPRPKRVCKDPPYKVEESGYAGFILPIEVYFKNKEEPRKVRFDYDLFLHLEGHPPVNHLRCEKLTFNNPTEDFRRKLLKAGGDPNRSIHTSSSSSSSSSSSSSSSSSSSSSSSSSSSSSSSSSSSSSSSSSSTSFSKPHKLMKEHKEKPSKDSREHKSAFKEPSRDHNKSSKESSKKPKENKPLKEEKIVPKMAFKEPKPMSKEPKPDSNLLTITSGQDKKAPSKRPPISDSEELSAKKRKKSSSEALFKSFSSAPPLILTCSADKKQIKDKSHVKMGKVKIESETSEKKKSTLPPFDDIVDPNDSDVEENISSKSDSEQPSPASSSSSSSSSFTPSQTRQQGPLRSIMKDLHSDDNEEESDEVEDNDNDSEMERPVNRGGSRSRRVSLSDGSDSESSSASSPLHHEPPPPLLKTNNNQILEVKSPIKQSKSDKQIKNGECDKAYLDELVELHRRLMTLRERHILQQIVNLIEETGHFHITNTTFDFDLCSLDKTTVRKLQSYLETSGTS
Ecoli rRNA inh OD600: further read-out of Ecoli rRNA inh, marked with its call; OD600 change, %; measured here: OD600 growth;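 optical density of the mix in the first replicate; 0 = DMSO median and -100 = no signal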
Ecoli rRNA inh RFP: recorded beside Ecoli rRNA inh, whose call it bears; RFP signal change, %; measured here: RFP humanized mutant strains;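 first replicate; 0 = DMSO median and -100 = no signal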
* marks the source's active call; other numbers are inactive results; u = inconclusive; x = not tested or not shown. The list is partial; count on the stated rates, not on these rows.

SMILES | Calb FLC | Ecoli rRNA inh | Ecoli rRNA inh OD600 | Ecoli rRNA inh RFP | T cruzi inh | RanGTP-Impb inh | Vif TR-FRET | Bfl-1 A1 inh | Beta apoptosis | MLL AF4-AF9 inh
COC(=O)c1ccc2ccn(CC(=O)NC(C)C)c2c1 | 11 | x | x | x | 1 | 3.8 | 13% | 0.7 | -4 | x
CCOC(=O)c1cccc(NC(=O)c2ccc3c(c2)C(=O)N(CC2CCCO2)C3=O)c1 (stereo unspecified) | 5 | -1 | 9 | 0.7 | -15 | 1.5 | x | 0.9 | -5 | -1.4
Cc1ccc(C)c(OCc2cc(C(=O)N3C[C@@H](C)O[C@@H](C)C3)no2)c1 | -2 | 3 | 4 | -0.1 | 0 | u | x | -2.1 | -2 | -0.6
COc1ccc(N2CCN(C3CCCN(Cc4cccc(C)c4)C3)CC2)cc1 (stereo unspecified) | -7 | 1 | 2 | -2.5 | 46 | -0.3 | x | 1.3 | -1 | 16
CCOc1ccccc1C(=O)N[C@H](C(=O)NCc1ccccc1)C(C)C | -13 | 10 | 11 | -5.2 | 12 | -0.4 | -2% | 0.4 | 0 | -0.7
CCOc1cc2[nH]c(=S)n(CCN3CCCCC3C)c(=O)c2cc1OCC (stereo unspecified) | -26 | x | x | x | -4 | u | 5% | 1.3 | -2 | x
Cc1cnc(C(=O)OCC(=O)c2c[nH]c3ccccc23)cn1 | x | 10 | 6 | 2.7 | x | x | 2% | -0.1 | -1 | 2.0
COc1ccc(OC)c(/C=C/C(=O)N2CCCc3ccccc32)c1 | -33 | -45 | -67 | -6.7 | 12 | 6.8 | -3% | -0.3 | 2 | 14
COc1ccc(CNC(=O)C2CCN(S(=O)(=O)c3ccccc3)CC2)cc1 | 1 | -5 | -1 | 1.3 | 18 | 2.4 | 4% | 0.0 | x | -0.3
O=C(O)CC1SC(=O)N(CC(=O)c2ccccc2)C1=O (stereo unspecified) | 17 | 21 | 15 | 4.6 | -9 | -4.8 | x | 0.4 | -2 | 3.0
CCOC(=O)C1=C(O)C(=O)NC(c2ccccc2)=C(OCC)C1 | -18 | x | x | x | -11 | 2.3 | 22% | 0.2 | -7 | x
CC(=O)Nc1ccc(NC(=O)c2nc(-c3ccccc3)oc2C)cc1 | 7 | -5 | 8 | -0.9 | 17 | 0.6 | -11% | 0.0 | x | -0.3
Cn1ncc([N+](=O)[O-])c1C(=O)Nc1nc2ccccc2n1CCN1CCCCC1 | u | x | x | x | 1 | -1.4 | 4% | 0.8 | -4 | x
CC1(C)CC(=O)C=C(Nc2ccc(OCC(F)(F)C(F)F)cc2)C1 | -10 | x | x | x | 9 | 30* | -1% | -0.1 | -11 | x
CCC1CCCCN1C(=O)COC(=O)c1cc2ccccc2cc1O (stereo unspecified) | 1 | x | x | x | 16 | 4.1 | -2% | -1.1 | -4 | x
COc1cc([C@@H]2c3cc4c(cc3[C@@H](O[C@@H]3O[C@@H]5CO[C@@H](C)O[C@H]5[C@H](O)[C@H]3O)[C@H]3COC(=O)[C@H]23)OCO4)cc(OC)c1O | x | x | x | x | -18 | 1.4 | x | 0.8 | 11 | -1.4
CC(C)Oc1ccc(C(=O)NN2C(=O)NC3(CCCCC3)C2=O)cc1 | x | -7 | 13 | 3.1 | x | x | -8% | 2.0 | 3 | -2.3
Cc1ccc(C)c(N2N=C(C(=O)O)CCC2=O)c1 | -1 | 13 | 7 | -6.7 | -4 | 4.2 | -4% | 0.0 | -5 | 0.3
COc1ccc(S(=O)(=O)N2CCCC2CNC(=O)C(=O)NCc2cccs2)cc1 (stereo unspecified) | 9 | -2 | 2 | 1.8 | 2 | -2.0 | -3% | -0.1 | -3 | 3.8
Oc1cccc2ccc(/C=C/c3ccccc3Cl)nc12 | 1 | -44 | -42 | -19 | 43 | 2.1 | x | -5.4 | 56 | 4.0
C=CCn1c(SCc2c(Cl)cccc2Cl)nnc1-c1cccnc1 | 30 | x | x | x | -22 | 7.4 | 1% | 0.6 | -4 | x
COc1ccccc1C(=O)C1CCCN(C(=O)C2=CC(=O)CC(C)(C)O2)C1 (stereo unspecified) | -11 | -1 | -3 | 1.1 | -9 | -1.4 | -8% | 0.3 | 0 | 2.1
Cc1ccc(-n2nc(C)cc2NC(=O)c2ccc(C)s2)cc1 | 43 | x | x | x | -11 | 5.2 | -1% | 0.9 | 4 | x
CC(C)Cn1c(C(C)NC(=O)Cc2ccccc2)nc2ccccc21 (stereo unspecified) | -8 | -7 | -18 | -3.4 | -12 | 7.8 | -6% | -0.1 | -4 | -0.6
NC1=NS(=O)(=O)NC1c1ccc(Cl)cc1 (stereo unspecified) | -1 | x | x | x | -2 | 6.7 | 8% | 0.2 | 4 | x
Cc1ccc(C(=O)CCC(=O)Nc2cccc(C)c2)cc1 | 13 | 2 | 14 | -2.9 | -2 | 3.1 | -5% | -0.7 | x | -4.5
O=C(CN1C(=O)NC(Cc2ccccc2)(Cc2ccccc2)C1=O)NCC1CCCCC1 | -12 | x | x | x | -3 | -0.2 | 3% | 0.2 | -2 | x
COc1ccc(C2(CNC(=O)c3cc([N+](=O)[O-])cc([N+](=O)[O-])c3)CCCC2)cc1OC | 3 | 1 | -3 | -7.3 | 42 | -1.7 | 27% | -0.5 | 5 | 1.0
Cc1ccc(-c2noc(CCC(=O)Nc3ccccc3C)n2)cc1 | -5 | x | x | x | -8 | -3.9 | -5% | 0.2 | -11 | x
c1ccc(COc2ccccc2CNc2nn[nH]n2)cc1 | 2 | -10 | -3 | -0.9 | -7 | -0.3 | 5% | 0.8 | -9 | -3.5
COc1ccc(-c2c(C)nn3c(N)c(C#N)cnc23)cc1OC | -2 | -1 | 5 | -1.3 | -10 | 5.8 | -11% | 0.1 | -7 | -3.2
Cc1ccc(S(=O)(=O)CCC(=O)c2cccc([N+](=O)[O-])c2)cc1 | 3 | 5 | 10 | -4.2 | 58* | -0.4 | x | -0.3 | -15 | -1.9
CCN(CC(=O)NCc1ccc(Cl)cc1)C(=O)CCc1ccccc1O | 5 | -10 | -11 | 0.4 | 17 | -0.6 | -5% | 0.4 | x | u
COc1ccc(CCNC(=O)COc2ccc(S(=O)(=O)NC3CCCCC3)cc2Cl)cc1 | 9 | x | x | x | 29 | 2.7 | -4% | -0.4 | -12 | x
O=C(COC(=O)c1cc[n+]([O-])cc1)Nc1ccc([N+](=O)[O-])cc1Cl | 5 | 8 | 10 | -3.5 | 8 | 3.7 | 7% | -0.2 | -4 | -1.4
COc1ccc([C@H]2CC(=O)C=C(c3ccc(OC)cc3OC)C2)cc1 | x | -23 | -30 | -25 | x | x | x | 1.0 | 7 | 2.6
COC(=O)C1=C(C)N=C2SCCC(=O)N2C1c1cc(Br)ccc1OC (stereo unspecified) | 5 | x | x | x | 7 | -0.1 | 18% | 0.6 | -7 | x
Cc1ccccc1-c1nc(CN2CCC(C(=O)NCCCN3CC(C)CC(C)C3)CC2)c(C)o1 (stereo unspecified) | 14 | x | x | x | 47 | 0.5 | -3% | -0.6 | 4 | x
Cn1c(C(=O)NCc2ccccc2)cc2oc3ccccc3c21 | 14 | x | x | x | 19 | 0.6 | -7% | 0.0 | 3 | x
CCOC1=CC(=O)N(Cc2ccccc2)C1 | -4 | 16 | 6 | -0.3 | -7 | 1.6 | x | 0.2 | 1 | 2.8
CCOc1cc(C(=O)OCC(=O)Nc2ccc(Cl)cn2)ccc1OCC(=O)N1CCOCC1 | -5 | 14 | 17 | 1.7 | -2 | -3.3 | x | 0.6 | -4 | 2.0
CCOC(=O)c1sc(=S)n(Cc2ccccc2)c1C | -4 | -32 | -28 | -0.5 | 14 | -2.7 | 15% | -0.4 | -4 | x
Cc1cnc(C(=O)N2CCCC(C(=O)c3ccc(C(C)(C)C)cc3)C2)cn1 (stereo unspecified) | 37 | -23 | -38 | 13 | -1 | -8.0 | -7% | 0.1 | 3 | -0.6
Cc1c(C(=O)Nc2nccs2)oc2c(Cl)cccc12 | 20 | 4 | 10 | 0.0 | 0 | -1.0 | 4% | -0.9 | 8 | -1.3
CCC(=O)N1CCc2cc(S(=O)(=O)NC(Cc3ccccc3)C(=O)NC3CCCCC3C)ccc21 (stereo unspecified) | 9 | x | x | x | 9 | -4.7 | 0% | -0.4 | -2 | x
Cc1ccc(NC(=O)OCCNC(=O)c2ccncc2)cc1 | 2 | -19 | -9 | -0.2 | 3 | -3.6 | -3% | -0.3 | -2 | -1.2
O=C(Cn1c(=O)n(-c2ccc(F)cc2)c(=O)c2sccc21)c1ccccc1 | -6 | x | x | x | -16 | 8.2 | -6% | 0.8 | -6 | x
COCCCNC(=O)c1ccc(CSCc2ccc(C)cc2)o1 | -2 | -6 | -5 | -0.8 | 6 | 2.1 | -2% | 0.6 | 9 | 1.5

2 compounds picked at random from those above:
SMILES | Calb FLC | Ecoli rRNA inh | Ecoli rRNA inh OD600 | Ecoli rRNA inh RFP | T cruzi inh | RanGTP-Impb inh | Vif TR-FRET | Bfl-1 A1 inh | Beta apoptosis | MLL AF4-AF9 inh
CCOC(=O)C1=C(O)C(=O)NC(c2ccccc2)=C(OCC)C1 | -18 | x | x | x | -11 | 2.3 | 22% | 0.2 | -7 | x
CCOC(=O)c1sc(=S)n(Cc2ccccc2)c1C | -4 | -32 | -28 | -0.5 | 14 | -2.7 | 15% | -0.4 | -4 | x

(next part)
SMILES | Calb FLC | Ecoli rRNA inh | Ecoli rRNA inh OD600 | Ecoli rRNA inh RFP | T cruzi inh | RanGTP-Impb inh | Vif TR-FRET | Bfl-1 A1 inh | Beta apoptosis | MLL AF4-AF9 inh
CCOC(=O)C1(C)NC(c2ccco2)C2C(=O)N(C)C(=O)C21 (stereo unspecified) | 24 | 15 | 12 | 3.1 | -21 | 5.2 | 3% | 0.3 | -2 | 0.1
Cc1ccc2c(c1)C1CN(C)CCC1N2S(=O)(=O)c1ccccc1F (stereo unspecified) | x | 1 | 2 | 0.0 | x | x | 14% | 0.0 | 1 | 3.3
CCN(CC)S(=O)(=O)c1ccc(N2CCN(S(=O)(=O)c3ccccc3C#N)CC2)nc1 | 7 | x | x | x | 19 | 8.3 | -2% | -0.3 | 3 | x
Cc1cc(C)n(S(=O)(=O)Cc2ccccc2)n1 | 17 | 5 | -4 | -10 | -8 | u | 10% | -0.4 | -4 | -0.4
Cc1sc2ncn(CC(=O)N3CCCCC3)c(=O)c2c1S(=O)(=O)N1CCC(C)CC1 | -8 | 5 | 3 | 1.3 | 8 | 5.3 | x | -0.4 | -3 | 1.0
Cc1ccc2[nH]c3ccccc3c(=O)c2c1 | 4 | 2 | -8 | -3.6 | 9 | 114* | -2% | -3.8 | 8 | -2.6

High-throughput results as filed in PubChem BioAssay.
